PINK1 modulator – PINK1 expression modulation; hit rate 0.2% among 410,000; PINK1 immunofluorescence, high-content cytometry, 24 h; Potency, µM (titrated, usually from 76.6 µM), inactives show top-dose activation (PINK1 increase), usual class: activators; active = well fitted activation curve with a large enough effect; inconclusive = small, poorly fitted or top-dose-only effect; inactive = flat fitted curve, though single readings scatter; cell line not stated here;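 further: potency means the concentration at half of the fitted maximal effect; % of control where 0% means no effect; nearly all actives have a fitted effect of over 65% in size; a mitochondrial uncoupler was the plate control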
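Measures PINK1 amount and localization on or inside mitochondria by immunofluorescence. Stable cells get compounds at 5 concentrations for 24 hours before fixation and staining; CCCP controls included.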
ClpP mod – qHTS Assay for Activators of ClpP; ATP-dependent Clp protease proteolytic subunit (Bacillus subtilis (strain 168)), P80244; purified B. subtilis ClpP, FRET peptide cleavage, 20 min; Potency, µM (doses to about 57.5 µM), inactives show at the highest dose activity change, negative = active; hit rate 1.9% among 340,000; AID 651965, 2013; active = well fitted falling curve with a large enough effect; inconclusive = small, poorly fitted or top-dose-only effect; inactive = no such curve, though single readings can be large or run the other way; further: potency means the concentration at half of the fitted maximal effect; the source files actives as falling curves though it sought activators and does not explain the sign; nearly all actives have a fitted effect of over 65% in size; many hits overshoot -100%
Target sequence (P80244 whole entry, looked up): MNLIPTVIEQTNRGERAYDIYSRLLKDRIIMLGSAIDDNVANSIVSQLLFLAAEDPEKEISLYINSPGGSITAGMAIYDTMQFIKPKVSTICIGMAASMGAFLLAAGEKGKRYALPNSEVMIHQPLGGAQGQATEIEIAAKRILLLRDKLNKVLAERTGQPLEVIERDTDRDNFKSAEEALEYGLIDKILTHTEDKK
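Purified B. subtilis ClpP, 10 microg/mL final in Tris/HCl pH8 with KCl, BSA, glycerol and Tween-20, cleaved an Abz/nitrotyrosine-quenched decapeptide. Fluorescence (ex 320, em 430) was read at 0 and 20 min at room temperature. Delta was normalized to 5.8 microM ADEP and DMSO/no-enzyme controls.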
Menin-MLL FL inh – menin-MLL binding inhibition, fluorescein peptide; Fluorescence polarization, fluorescein-MLL peptide displacement from menin; FP activity change, % at 61.4 µM; 290,000 tested, under 10 active; AID 1766; inconclusive = falling polarisation curve, or a change in total fluorescence; inactive = total fluorescence flat and polarisation flat or rising; no compound was filed as active; the % refers to the polarisation; negative = inhibition;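 further: % of control where 0% means no effect; inhibitors lower the polarisation; unlabelled MLL peptide was the positive control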
Sfp PPTase inh – Sfp phosphopantetheinyl transferase inhibition | Biochemical Sfp PPTase activity, qHTS | Potency, µM, inactives show max response, negative = inhibition, most hits filed as inhibitors | hit rate 3.5% among 310,000 | Q9F4F7; active means well fitted inhibition curve with a large enough effect; inconclusive means small, poorly fitted or top-dose-only effect, or another doubt; inactive means no such curve, though single readings can be large or run the other way;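 further: the enzyme is Sfp with the accession as filed and its product quenches rhodamine fluorescence; potency means the concentration at half of the fitted maximal effect; 0% = enzyme reaction without inhibitor and -100% = no enzyme wells; top concentration of the series not given in the record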
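Reaction rates are the 30-min fluorescence difference (ex 525, em 598 nm) in wells containing 15 nM Sfp, 5 uM rhodamine-CoA and 12.5 uM BHQ-2-YbbR at pH 7.6 with 10 mM MgCl2.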
TRPV1 potentiator – enhances activation of the human vanilloid receptor TRPV1; hit rate 0.02% among 320,000; Q8NER1; TRPV1-expressing cells, Fluo-8 calcium influx, capsaicin EC20 potentiation; host cell line not named in the record; control for the full effect not named in the record; potentiation, % at 8.33 µM; active means potentiation above 80%; inconclusive means 30% to 80%; inactive means below 30%; further: 0% is about no effect
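Fluo-8 calcium influx in TRPV1-expressing cells, kinetic read (ex 480/em 520 nm). Compound added and read 3 min for agonist activity, followed by capsaicin at EC20 final and 2 min further read for enhancement.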
TRPML1 ag – activates the human TRPML1 channel; Q9GZU1; activation, % (test concentration not listed); TRPML1-expressing cells, Ca2+ dye fluorescence, FDSS; host cell line not named in the record; reference of the full effect not given here; hit rate 0.12% among 410,000; in the data active = activation above about 50%; inconclusive = about 30% to 50%; inactive = below about 30%; further: 0% is about no effect; the text of the record puts the active cut at 80%
Target sequence (Q9GZU1 whole entry, looked up): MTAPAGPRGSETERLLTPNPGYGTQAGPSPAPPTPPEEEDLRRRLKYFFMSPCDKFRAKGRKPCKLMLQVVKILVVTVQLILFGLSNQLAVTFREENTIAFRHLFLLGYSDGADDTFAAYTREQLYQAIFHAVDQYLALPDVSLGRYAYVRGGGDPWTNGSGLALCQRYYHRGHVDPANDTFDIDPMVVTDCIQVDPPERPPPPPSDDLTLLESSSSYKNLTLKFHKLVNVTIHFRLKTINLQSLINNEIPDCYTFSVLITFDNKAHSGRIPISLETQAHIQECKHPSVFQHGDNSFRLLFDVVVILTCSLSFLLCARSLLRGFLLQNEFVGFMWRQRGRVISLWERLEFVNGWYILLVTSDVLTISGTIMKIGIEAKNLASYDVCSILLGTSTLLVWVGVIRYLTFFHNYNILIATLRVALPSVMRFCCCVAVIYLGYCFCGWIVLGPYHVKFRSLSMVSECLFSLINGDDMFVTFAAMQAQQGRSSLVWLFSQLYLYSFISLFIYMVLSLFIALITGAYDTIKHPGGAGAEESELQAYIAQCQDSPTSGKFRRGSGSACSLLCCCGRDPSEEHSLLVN
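TRPML1-DL cells, Tet-induced overnight (~16 h, 37 degrees C), loaded 45-90 min at room temperature with Ca8 no-wash calcium dye plus quencher. FDSS fluorescence: 10 s baseline, compound pin-transfer, 110 s agonist read, then EC80 54-4 (4uM final) and 110 s antagonist read.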
TRPML1 inh – blocks the human TRPML1 channel. Q9GZU1. TRPML1-inducible cells, Ca2+ dye fluorescence, FDSS; active compounds read low; inhibition of EC80 agonist-evoked calcium signal. activity change, negative = inhibition, % (concentration not given with the values). hit rate 0.02% among 390,000. AID 624415; in the data active means activity change below about -50%; inconclusive means about -30% to -50%; inactive means above about -30%;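 further: stimulus is agonist 54-4 at its EC80 concentration; on the % scale 0 is the no-effect control and ±100 the full control effect; the text of the record puts the active cut at -80%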
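Calcium fluorescence in TRPML1-DL cells induced overnight with Tet: a 110 s read after compound pin addition, then a 110 s antagonist read after challenge with 54-4 at 4 uM final (EC80).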
An asterisk follows results filed as active; ? = inconclusive; · = not tested or not shown; & = joins results of further samples; [ ] = another dose, or the depositor's remark.

Structure,ClpP mod,Menin-MLL FL inh,TRPML1 ag,Sfp PPTase inh,TRPV1 potentiator,TRPML1 inh,PINK1 modulator
CCc1ccc(CCC(=O)Nc2ccc(C)c(C)c2)o1,-3.5%,1.3,1.3,-9%,-1,45,8.1%[38.3 µM]
CCOC(=O)CN(C(=O)CSc1nnc(-c2ccncc2)n1CCCOC)c1ccccc1,-1.7%,3.6,0.1,16%,-5,2,-1.9%
Cc1cc(F)ccc1S(=O)(=O)N1CCCOC1CNC(=O)C(=O)NCc1ccncc1 (stereo not given),-0.2%,·,-0.5,14%,1,-7,-1.0%
CC(Oc1ccc(F)cc1)C(=O)Nc1cc(Cl)ccc1-n1cncn1 (stereo not given),-1.8%,·,-0.5,·,-21,23,-2.8%
COc1ccc(CCNC(=O)c2cc(C3CC3)nc3c2cnn3C(C)C)cc1OC,-3.8%,·,1.0,·,-18,33,1.4%
COc1cc(OC)c2c(C)cc(=O)oc2c1C(CCN1CCOCC1)c1ccc(N(C)C)cc1 (stereo not given),-1.3%,-1.3,0.1,-10%,-17,89,1.8%
CCOC(=O)C1CCCN(S(=O)(=O)c2ccc(OC)cc2)C1 (stereo not given),0.7%,1.3,0.1,10%,0,-3,-3.3%[38.3 µM]
COc1ccc(-c2csc3ncnc(N4CCN(c5cccc(C)c5C)CC4)c23)cc1,-28%,-2.0,0.4,6%,-34,4,7.8%
COC(=O)CN1C(=O)C(C)(C)Oc2ccc(C(=O)NC3CC3)cc21,1.1%,-5.2,-0.9,1%,-4,20,12%[38.3 µM]
COc1ccc(NC(=O)CNC(c2ccccc2)c2ccccc2)cc1,-0.8%,-0.6,-1.3,?,-13,1,0.7%
CC(C)(C)C(=O)Nc1ncc(C(F)(F)F)cc1Cl,2.5%,3.8,-0.1,12%,-1,13,-2.0%
CC(C)CC(=O)Nc1ccc(Cl)c(-c2nc3ccccc3[nH]2)c1,-23%,·,3.0,·,·,-15,1.8%
C/C=C(\C)c1nnc(NC(=O)OCC)s1,-4.7%,7.4,-0.4,10%,-7,-4,-1.0%
COc1ccc(C(=O)OCC(=O)NC2CC2)cc1[N+](=O)[O-],0.0%,6.6,2.4,-2%,14,-3,-0.9%
c1ccc2sc(C3CCN(Cc4nnnn4Cc4ccc5c(c4)OCO5)CC3)nc2c1,1.2%,0.6,0.5,6%,3,48,4.6%
O=C(CSc1nnc(C2CCCCC2)n1Cc1ccccc1)NCc1ccco1,0.3%,1.6,3.3,-9%,3,1,-3.0%
CC12CCC3c4ccc(O)c([N+](=O)[O-])c4CCC3C1CCC2=O (stereo not given),0.0%,·,2.1,·,·,24,1.9%
COc1cccc(OC)c1-c1nn2c(-c3ccco3)nnc2s1,-0.8%,2.7,-0.5,-21%,-7,-1,·
Cc1nn(C(C)C(=O)NCC2CCCO2)c(=O)c2cc3occc3n12 (stereo not given),-11%,-0.2,1.1,8%,14,-5,2.6%
COc1ccc(N2CCN(C(=O)c3c(-c4ccccc4)noc3C)CC2)cc1,-3.0%,2.0,0.3,6%,3,6,2.9%

Copied from the list.
`O=C(CSc1nnc(C2CCCCC2)n1Cc1ccccc1)NCc1ccco1` in TRPML1 ag shows 3.3
`CC12CCC3c4ccc(O)c([N+](=O)[O-])c4CCC3C1CCC2=O` (stereo not given) in TRPML1 inh shows 24
`CC(C)CC(=O)Nc1ccc(Cl)c(-c2nc3ccccc3[nH]2)c1` in ClpP mod shows -23%

Further records.
Structure,ClpP mod,Menin-MLL FL inh,TRPML1 ag,Sfp PPTase inh,TRPV1 potentiator,TRPML1 inh,PINK1 modulator
N#CNC(=Nc1ccc(F)cc1)SCc1ccccc1,-1.8%,1.8,0.4,8%,-10,-11,0.5%
CN(CC(=O)NCc1ccccc1)S(=O)(=O)c1cnc[nH]1,0.6%,0.9,1.0,7%,?,14,4.4%[38.3 µM]
CCc1ccc(OCC(O)CN2CCN(c3ccccc3)CC2)cc1 (stereo not given),-1.4%,-0.1,0.8&1.1,-15%,-8,-7&-16,13%
COc1ccc(-c2c[n+](CC(=O)N3c4ccccc4Sc4ccccc43)c3n2CCC3)cc1,-0.7%,2.8,-0.4,-14%,-1,-5,?
CC(=O)c1cc(-c2ccccc2)n(CCC(=O)NC2CCCCCCC2)c1C,-3.1%,5.2,1.5,-15%,-10,14,-0.8%
COc1cc(OC)c(OC)cc1NC(=O)CC1COc2ccccc2O1 (stereo not given),-5.2%,4.3,-0.5,27%,2,-7,-3.5%[38.3 µM]
O=C(Nc1cccc(Cl)c1)N1CCCC1,2.3%,0.0,0.5,10%,2,32,-1.9%
CCCOc1ccc(C2=NNC(=O)CC2)cc1,1.6%,4.7,1.1,12%,-6,-11,-1.3%
CC(C)(C)c1ccc(C(=O)N2CCN(CCNC(=O)C(=O)NCc3ccc(Cl)cc3)CC2)cc1,-2.2%,4.7,0.7,3%,2,5,-0.8%
Cc1cc(C)c(S(=O)(=O)Nc2ccc(-c3ccc(N4CCCCCC4)nn3)cc2)cc1C,-11%,·,-0.9,·,·,34,0.7%
CC(C)(C)c1ccc(-c2cn(-c3ccc(Br)cc3)c3[n+]2CCCS3)cc1,·,-12,-0.2,-11%,-6,20,35µM*
COC(=O)c1sc(NC(=S)NC(=O)c2cccc(Br)c2)nc1C,0.6%,-2.4,·,-15%,?,·,3.0%
COc1ccc(-c2nnc(NC(=O)c3ccco3)s2)cc1,·,2.6,3.8,4%,2,-2,-0.6%
CNS(=O)(=O)c1cccc(C(=O)OCC(=O)NC2CCCC(C)C2C)c1 (stereo not given),-0.7%,·,-0.5,·,·,3,0.4%
Cc1ccc(S(C)(=O)=NS(=O)(=O)c2cccc3nsnc23)cc1 (stereo not given),·,1.3,1.1,11%,-6,-5,-2.5%
Cc1cc(NC(=O)CCC(=O)N(Cc2ccco2)C2(C(=O)NC3CCCCC3)CCCCC2)no1,·,·,0.6,7%,?,-10,-1.8%
Cn1c(=O)oc2cc(S(=O)(=O)NCCC(=O)NCCc3ccccc3)ccc21,1.6%,0.7,2.5,13%,0,7,-2.8%[38.3 µM]
N#C/C(=C/c1ccc(OCc2ccc(C(=O)O)cc2)cc1)C(=O)Nc1ccccc1,0.7%,-1.3,3.2,-3%,-16,15,-0.3%
Cc1ccc(NC(=O)c2c(C)nc3sc(C(=O)Nc4ccc(F)cc4)c(N)c3c2-c2ccc(Cl)cc2)c(C)c1,-3.1%,·,0.0,·,·,10,0.9%
CC(C)CCC(CC(C)O)C(=O)NNC(=S)Nc1ccccc1 (stereo not given),-1.0%,0.5,-0.5,19%,-22,3,0.9%
O=C1CC(c2ccc(S(=O)(=O)Nc3cc(C(F)(F)F)cc(C(F)(F)F)c3)cc2)CN1 (stereo not given),-2.4%,2.7,0.7,19%,6,2,7.6%[38.3 µM]
O=C(CN1C(=O)c2ccccc2S1(=O)=O)Nc1ccc(S(=O)(=O)Nc2ncccn2)cc1,-2.5%,·,0.3,·,2,16,-3.7%
O=[N+]([O-])c1ccc(C2CN=C(Nc3ccccc3)S2)cc1 (stereo not given),-0.2%,6.1,0.0,-3%,5,2,-0.5%
COc1cc(OC)c(N(C)C(=O)c2c(C)oc3ncnc(N4CCCCC4)c23)cc1Cl,-5.0%,·,-1.0,·,·,-6,-1.1%
COCCn1c(SCc2ccc(F)cc2)nc2ccccc2c1=O,-0.7%,·,3.4,-13%,-1,48,2.4%
Clc1cccc(-c2nc(NCCN3CCOCC3)c3ccccc3n2)c1,·,-0.8,1.0,9%,-26,27,-2.4%
O=C(c1cc(COc2c(F)cccc2F)on1)N1CCc2ccccc2C1,0.4%,0.8,1.5,14%,-7,37,0.4%
c1csc(-n2nc3ccccc3n2)c1,-1.9%,4.9,1.6,-8%,-16,-3,0.0%
C=CCc1cccc(/C=N/NC(=O)CNc2ccccc2OC)c1O,-0.6%,4.1,4.2,21%,-14,-15,4.1%
Cc1cc(N=Cc2c(O)n(-c3cccc(C(F)(F)F)c3)c(=O)c3ccccc23)no1,-0.5%,12,1.2,63µM*,1,9,10%
CCOC(=O)C1CCC(CN(Cc2ccc(Cl)cc2)S(=O)(=O)c2ccc(F)c(C(=O)Nc3cccc(F)c3)c2)CC1 (stereo not given),-6.0%,·,0.8,·,·,34,1.1%
CCn1cc(/C=N\NC(=O)c2csc3ccccc23)c(C)n1,0.2%,-1.3,-0.4,2%,?,66,-0.2%
CCOc1ccc(CC(=O)OCn2nnc3ccccc3c2=O)cc1,·,0.4,1.7,-6%,6,-17,0.0%
CN(C)CCNC(=O)COc1cccc2c1OC(C)(C)C2,·,-0.6,0.4,9%,19,-4,2.3%
CS(=O)(=O)NNC(=O)c1sccc1OCc1ncc(C(F)(F)F)cc1Cl,·,-0.8,1.0,20%,20,-7,-0.7%
CN(C)c1nc(OCCNC(=O)Nc2ccc(Cl)cc2)nc(N(C)C)n1,0.8%,2.2,0.9,-2%,6,-5,-0.2%
CSc1nc(SCC(=O)NCc2ccco2)c2c3c(sc2n1)COC(C)(C)C3,-18%,1.0,2.6,-15%,10,-6,13µM*
CC1CCCN(CCCNC(=O)c2nn(C)c3c2CS(=O)(=O)c2ccccc2-3)C1 (stereo not given),-15%,·,0.5,4%,22,9,-1.1%

Entries above shown as hits in PINK1 modulator.
Structure,Menin-MLL FL inh,Sfp PPTase inh,TRPML1 inh,PINK1 modulator
CC(C)(C)c1ccc(-c2cn(-c3ccc(Br)cc3)c3[n+]2CCCS3)cc1,-12,-11%,20,35µM*
CSc1nc(SCC(=O)NCc2ccco2)c2c3c(sc2n1)COC(C)(C)C3,1.0,-15%,-6,13µM*

The order is random; overall some 4.4% were active at least once.
